Menin MLL FP FL: inhibitors of human menin-MLL interaction, wild-type MLL peptide | Fluorescence polarization, fluorescein-MLL peptide displacement from menin | FP activity change, % at 61.4 µM | 290,000 tested, under 10 active | AID 1766; inconclusive = falling polarisation curve, or a change in total fluorescence; inactive = total fluorescence flat and polarisation flat or rising; no compound was filed as active; the % refers to the polarisation; negative = inhibition;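 note: % of control where 0% means no effect; inhibitors lower the polarisation; unlabelled MLL peptide was the positive control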
TRPV1 potentiator: potentiators of human vanilloid receptor 1 (TRPV1) | Q8NER1 | TRPV1-expressing cells, Fluo-8 calcium influx, capsaicin EC20 potentiation; host cell line not named in the record; control for the full effect not named in the record | potentiation, % at 8.33 µM | actives 0.02% (n = 320,000) | AID 540277; active means potentiation above 80%; inconclusive means 30% to 80%; inactive means below 30%; note: 0% is about no effect
Target sequence (Q8NER1 whole entry, looked up): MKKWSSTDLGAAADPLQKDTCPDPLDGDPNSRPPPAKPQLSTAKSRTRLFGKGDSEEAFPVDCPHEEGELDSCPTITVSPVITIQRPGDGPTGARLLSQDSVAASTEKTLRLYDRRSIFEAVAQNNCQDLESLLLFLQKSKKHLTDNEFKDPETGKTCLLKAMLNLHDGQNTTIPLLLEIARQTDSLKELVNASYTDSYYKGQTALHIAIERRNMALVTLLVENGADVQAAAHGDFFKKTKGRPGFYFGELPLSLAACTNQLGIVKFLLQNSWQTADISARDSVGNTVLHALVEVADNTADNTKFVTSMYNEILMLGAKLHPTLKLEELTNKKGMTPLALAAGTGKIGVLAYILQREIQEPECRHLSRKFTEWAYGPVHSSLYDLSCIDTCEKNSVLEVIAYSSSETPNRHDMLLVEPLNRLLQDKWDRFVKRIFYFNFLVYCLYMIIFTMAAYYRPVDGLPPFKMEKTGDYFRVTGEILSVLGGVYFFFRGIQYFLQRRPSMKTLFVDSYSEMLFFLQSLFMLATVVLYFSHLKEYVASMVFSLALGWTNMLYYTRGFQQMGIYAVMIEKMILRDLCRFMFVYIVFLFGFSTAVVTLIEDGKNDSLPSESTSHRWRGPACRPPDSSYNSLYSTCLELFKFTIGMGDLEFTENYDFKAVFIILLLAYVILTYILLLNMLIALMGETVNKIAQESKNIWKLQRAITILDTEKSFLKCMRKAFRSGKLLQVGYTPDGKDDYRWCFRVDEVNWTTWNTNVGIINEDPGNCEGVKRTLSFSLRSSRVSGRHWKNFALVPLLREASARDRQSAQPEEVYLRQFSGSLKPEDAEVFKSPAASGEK
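Fluo-8 calcium influx in TRPV1-expressing cells, kinetic read (ex 480/em 520 nm). Compound added and read 3 min for agonist activity, followed by capsaicin at EC20 final and 2 min further read for enhancement.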
Sfp inh: Sfp phosphopantetheinyl transferase inhibition; Q9F4F7; Biochemical Sfp PPTase activity, qHTS; Potency, µM, for inactives: max response, negative = inhibition, hits mostly inhibitors; actives 3.5% (n = 310,000); active = well fitted inhibition curve with a large enough effect; inconclusive = small, poorly fitted or top-dose-only effect, or another doubt; inactive = no such curve, though single readings can be large or run the other way;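 note: the enzyme is Sfp with the accession as filed and its product quenches rhodamine fluorescence; potency is the fitted concentration of half-maximal effect; 0% = enzyme reaction without inhibitor and -100% = no enzyme wells; top concentration of the series not given in the record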
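After 15 min at room temperature with compound, 15 nM Sfp received 5 uM rhodamine-CoA plus 12.5 uM BHQ-2-ybbR (50 mM Hepes pH 7.6, 10 mM MgCl2). Rate came from the fluorescence difference over 30 min, ex 525/em 598 nm.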
ClpP mod: qHTS Assay for Activators of ClpP. purified B. subtilis ClpP, FRET peptide cleavage, 20 min. Potency, µM (series often up to 57.5 µM), for the others: top-dose activity change, negative = active. ATP-dependent Clp protease proteolytic subunit (Bacillus subtilis (strain 168)), P80244. actives 1.9% (n = 340,000). AID 651965, 2013; active = well fitted falling curve with a large enough effect; inconclusive = small, poorly fitted or top-dose-only effect; inactive = no such curve, though single readings can be large or run the other way; note: potency is the fitted concentration of half-maximal effect; the source files actives as falling curves though it sought activators and does not explain the sign; nearly all actives have a fitted effect of over 65% in size; many hits overshoot -100%
Target sequence (P80244 whole entry, looked up): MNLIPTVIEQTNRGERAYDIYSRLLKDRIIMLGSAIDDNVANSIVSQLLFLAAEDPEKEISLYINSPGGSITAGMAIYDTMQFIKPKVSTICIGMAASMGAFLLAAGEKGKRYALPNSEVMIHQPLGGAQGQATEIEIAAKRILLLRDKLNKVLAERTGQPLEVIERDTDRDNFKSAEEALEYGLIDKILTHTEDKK
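ClpP 10 microg/mL final, pH 8 Tris/KCl buffer with BSA, glycerol, Tween-20; compound pinned in; FRET-FV substrate; RT 20 min; Ex320/Em430; ΔFRET vs ADEP 5.8 microM, DMSO, no enzyme.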
gsp agonist: activates gsp, the McCune-Albright syndrome mutation | gsp mutant cells, cAMP HTRF, 30 min; control for the full effect not named in the record | Potency, µM (series often up to 76.9 µM), inactives show at the top dose activation (cAMP increase), actives largely listed as activators | actives 0.13% (n = 340,000) | AID 624287; active = well fitted activation curve with a large enough effect; inconclusive = small, poorly fitted or top-dose-only effect, or another doubt; inactive = no such curve, though single readings can be large or run the other way; cell line not stated here;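 note: phosphodiesterase inhibitor Ro 20-1724 added with compounds to block cAMP breakdown; potency is the fitted concentration of half-maximal effect; nearly all actives have a fitted effect of over 60% in size; about a fifth of the inactives were tested at one dose only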
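Cells in DMEM/10% FBS with G418 were pretreated with compounds in DMSO plus […] (300 uM stock) for 30 min at 37C. cAMP was measured by HTRF (cAMP-d2 plus anti-cAMP antibody-K) after 30 min at room temperature.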
gsp antagonist: antagonists of gsp mutant (McCune-Albright syndrome); gsp-mutant cells, cAMP HTRF, 30 min; control for the full effect not named in the record; actives 0.4% (n = 340,000); Potency, µM (titrated, usually from 76.9 µM), inactives show at the top dose activity change, negative = inhibition, usual class: inhibitors; active = falling curve of any shape with a large fitted effect; inconclusive = falling curve, mostly with a smaller effect; inactive = flat or rising curve; cell line not stated here;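 note: intracellular cAMP measured with PDE inhibitor Ro 20-1724 present during compound exposure; potency is the fitted concentration of half-maximal effect; % is set by controls: 0 for no effect and ±100 for the full control effect; nearly all actives have a fitted effect of over 65% in size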
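Cells, 2000/well, grown 16–24 h in DMEM 10% FBS with 0.5 mg/ml G418, then compounds plus […] (300 uM addition stock), 30 min at 37C. cAMP read by HTRF (cAMP-d2 and anti-cAMP antibody-K in lysis buffer) after 30 min RT.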
TRPML1 blocker: inhibitors of human TRPML1 channel; Q9GZU1; TRPML1-inducible cells, Ca2+ dye fluorescence, FDSS; hits give low values; inhibition of EC80 agonist-evoked calcium signal; activity change, negative = inhibition, % (concentration not given with the values); actives 0.02% (n = 390,000); AID 624415; in the data active means activity change below about -50%; inconclusive means about -30% to -50%; inactive means above about -30%;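 note: stimulus is agonist 54-4 at its EC80 concentration; % is set by controls: 0 for no effect and ±100 for the full control effect; compound concentration not given in the record; the text of the record puts the active cut at -80%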
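Tet-induced TRPML1-DL cells loaded with Ca8 no-wash calcium dye were read kinetically on FDSS. Compound addition was followed by EC80 agonist 54-4 (4 uM final); inhibition was read over 110 s.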
* = called active by the depositor; ? = inconclusive; . = not tested or not shown; & = joins results of further samples; [ ] = dose if it differs, or a comment.

#1 Cc1c(CN2CCN(CC(C)C)C(CCO)C2)[nH]c2ccc(Cl)cc12 (stereo not given)
#2 CCCCOC(=O)Nc1nnc(SCCOc2ccc(C)cc2)s1
#3 CCOc1ccc(C(=O)CCC(=O)NCC(=O)Nc2ccc(F)c(F)c2F)cc1
#4 COC(=O)c1ccc(S(=O)(=O)N2C3CCC2CC(NC(=O)NC2CCCCC2)C3)cc1 (stereo not given)
#5 CCN(Cc1ccccc1)C(=O)Cn1cc(S(=O)(=O)NC)c(S(=O)(=O)NC)c1
#6 O=C(Nc1nnc(C2=COCCO2)o1)c1ccc(F)cc1
#7 Cc1ccc2c(c1)COc1c3ccc(C(=O)O)cc3nn1-2
#8 Clc1ccc2nc(N3CCCCC3)sc2c1

compound no.	1	2	3	4	5	6	7	8
ClpP mod	.	0.0%	0.9%	-0.1%	-1.3%	1.5%	87.5%	2.0%
gsp agonist	-22.5%	12.3%	-18.2%	-7.2%	18.3%	?	.	-5.0%[15.4 µM]
gsp antagonist	17.7%	9.1%	.	15.9%	5.5%	-8.7%	?	-13.6%
TRPV1 potentiator	-3.0	-7.7	.	8.5	-3.2	2.4	-3.6	-12.3
TRPML1 blocker	9.8	27.4	-1.3	5.6	38.3	9.4	21.4	9.5
Sfp inh	-9.1%	11.3%	.	8.0%	3.3%	5.0%	2.8%	1.0%
Menin MLL FP FL	4.6	1.3	.	-3.8	4.8	-7.3	-2.1	0.9

#9 COc1ccc(CNC(=O)COC(=O)c2ccc(Br)o2)cc1
#10 O=C(COC(=O)CCS(=O)(=O)c1ccccc1)NC(=O)c1ccc(OC(F)F)cc1
#11 CN(C)CCNC(=O)C(=O)Nc1cc2c3c(c1)CCC(=O)N3CCC2
#12 N#Cc1ccccc1NC(=O)CSc1nnc(-c2ccccc2)n1-c1ccccc1
#13 O=C(Nc1ccc(N2CCOCC2)cc1)c1cccc(S(=O)(=O)N2CCC(Cc3ccccc3)CC2)c1
#14 N#C/C(=C\c1ccc(F)cc1)C(=O)Nc1ccccn1
#15 CCN1CCN(C(=O)CN(c2ccc(F)cc2)S(=O)(=O)c2ccc(OC)c(OC)c2)CC1
#16 CCCCCOC(=O)CSc1n[nH]c(=O)[nH]c1=O

compound no.	9	10	11	12	13	14	15	16
ClpP mod	1.6%	-0.8%	1.1%	-9.8%	-1.5%	.	1.5%	0.4%
gsp agonist	-1.6%	1.8%[15.4 µM]	-25.7%	2.5%	-2.7%	-3.3%	-28.1%	0.3%
gsp antagonist	7.5%	2.1%	2.0%	-0.1%	-3.4%	6.5%	9.9%	-2.8%
TRPV1 potentiator	-5.3	19.0	0.0	4.2	5.8	3.2	0.9	-0.7
TRPML1 blocker	7.2	-2.0	9.9	-11.6	-0.7	29.1	19.4	-8.2
Sfp inh	.	.	7.7%	14.6%	9.9%	2.4%	17.2%	19.6%
Menin MLL FP FL	.	.	.	3.5	0.1	-7.3	1.0	-1.6

Reformatted: results already given.
#2 CCCCOC(=O)Nc1nnc(SCCOc2ccc(C)cc2)s1
- ClpP mod: 0.0%
- gsp agonist: 12.3%
- gsp antagonist: 9.1%
- TRPV1 potentiator: -7.7
- TRPML1 blocker: 27.4
- Sfp inh: 11.3%
- Menin MLL FP FL: 1.3
#16 CCCCCOC(=O)CSc1n[nH]c(=O)[nH]c1=O
- ClpP mod: 0.4%
- gsp agonist: 0.3%
- gsp antagonist: -2.8%
- TRPV1 potentiator: -0.7
- TRPML1 blocker: -8.2
- Sfp inh: 19.6%
- Menin MLL FP FL: -1.6

(cont.)
#17 CCOC(=O)C1CCN(C(=O)c2sc3nc(C)nc(N4CCC(C)CC4)c3c2C)CC1
#18 O=c1cc(O)c2c(=O)n(C3CCCCC3)c3ccccc3c2o1
#19 Cc1ccccc1NC(=O)c1ccc2c(c1)C(=O)N(CCC(C)C)C2=O
#20 COc1ccc(NC(=O)CSCC(=O)Nc2cc(Cl)ccc2N2CCCC2)cc1
#21 CCCCCCc1ccc(N2C[C@H](CCCCC)[C@@H](CC(=O)NCc3ccc(OC)cc3)C2=O)cc1
#22 CN(C)CCCNC(=O)C(=O)NCC1OCCN1S(=O)(=O)c1cccs1 (stereo not given)
#23 CCOC(=O)C1CCN(S(=O)(=O)Cc2ccccc2)CC1
#24 Cc1cccc(N(Cc2cc3ccccc3[nH]c2=O)S(C)(=O)=O)c1

compound no.	17	18	19	20	21	22	23	24
ClpP mod	-1.6%	-3.6%	-1.0%	-2.6%	-3.7%&-2.0%	-2.4%	-2.8%	.
gsp agonist	?	2.5%	?	?	-23.4%	26.7%	8.5%	-26.7%
gsp antagonist	-14.9%	-13.8%	-0.7%	?	11.8%	6.1%	1.6%	-10.2%
TRPV1 potentiator	-1.6	-2.7	-10.1	3.1	-22.2	-4.2	?	1.7
TRPML1 blocker	9.7	-2.5	17.1	6.7	-4.2	-1.2	4.6	15.5
Sfp inh	0.4%	-5.5%	10.2%	3.1%	-1.7%	79.4µM*	-0.2%	56.2µM*
Menin MLL FP FL	-0.7	7.8	-3.8	.	-5.6	.	1.4	-2.4

#25 COc1ccc(Cn2c(S(=O)(=O)CC(N)=O)nc3ccccc32)cc1[N+](=O)[O-]
#26 Cn1c(SCC(=O)NCc2ccc3c(c2)OCO3)nc2scc(-c3cccs3)c2c1=O
#27 CCOC(=O)C(CCCOc1cccc(OC)c1)C(=O)OCC
#28 COCCCN=C1NN=C(c2cc(C)n(-c3ccccc3)c2C)CS1
#29 O=C(Nc1ccn(Cc2c(F)c(F)cc(F)c2F)n1)c1ccc(COc2ccc(Cl)cc2Cl)o1
#30 O=C(c1ccc(CNc2c(N3CCCC3)c(=O)c2=O)cc1)N1CC=C(c2ccccc2)CC1
#31 O=C(CSc1ccc2nnc(-c3ccccn3)n2n1)Nc1nccs1
#32 CC[C@@]12C(=O)N(c3ccccc3)C(=O)N1[C@H](c1ccc(OC)cc1)[C@@H]1C(=O)N(C(C)(C)C)C(=O)[C@@H]12

compound no.	25	26	27	28	29	30	31	32
ClpP mod	.	51.7%	-1.5%	.	-15.7%	-0.6%	1.0%	-0.1%
gsp agonist	.	-23.1%	20.7%	13.4%	-1.9%	-17.1%	?	-39.4%[inhibitor]
gsp antagonist	.	-27.7%	-19.3%	1.0%	-6.0%	-26.7%	11.8%	6.8%
TRPV1 potentiator	8.4	3.1	-9.8	0.0	-3.2	2.5	16.6	-22.0
TRPML1 blocker	.	16.1	35.4	5.5	16.3	9.6	4.2	-5.2
Sfp inh	-10.5%	-10.2%	10.5%	-21.5%	16.4%	-5.2%	12.6%	.
Menin MLL FP FL	4.0	0.6	0.8	3.1	5.5	1.2	0.2	.

#33 CCSc1nnc2ccc(-c3ccc(C)cc3)nn12
#34 CN(C)C(=S)N=Nc1[nH]c2ccccc2c1O
#35 CC#CC(=O)NCC1(N(C)Cc2ccccc2)Cc2ccccc2C1
#36 Nc1nc(O)c(CC(=O)O)s1
#37 COc1ccc(CN2CCNC(=O)C2CC(=O)NCc2cn3ccc(C)cc3n2)c(OC)c1 (stereo not given)
#38 Cc1cccc(/C=N/NC(=O)c2c(-c3ccccc3)noc2C)c1O
#39 CN(Cc1ccccc1)C(=O)COC(=O)/C=C/c1ccco1
#40 O=C(c1ccccc1)N1CCC(CC2CC(c3cccc(Br)c3)=NO2)(C(=O)NCC2CCCCC2)CC1 (stereo not given)

compound no.	33	34	35	36	37	38	39	40
ClpP mod	-5.8%	0.6%	1.3%	.	.	9.4%	-1.9%	-0.6%
gsp agonist	9.3%	-25.7%	9.1%	0.3%[15.4 µM]	15.4%	-29.1%	-15.3%[15.4 µM]	13.0%
gsp antagonist	-6.7%	-22.0%	3.3%	-7.1%	8.8%	-17.1%	-3.1%	?
TRPV1 potentiator	0.1	-2.2	-5.8	-18.7	6.8	18.3	-14.4	-0.9
TRPML1 blocker	-2.9	-10.6	-0.4	-14.4	6.1	4.9	13.7	46.4
Sfp inh	-11.4%	-19.5%	12.9%	-7.2%	4.3%	30.7%[activator]	35.5µM*	-4.9%
Menin MLL FP FL	-4.0	5.9	4.6	-1.0	-4.9	.	?	-3.2

#41 O=C(/C=C/c1ccncc1)c1ccc2c(c1)OCCO2
#42 CC1(C)CC(=O)C(C=NCc2cccnc2)=C(O)C1
#43 CC1(C)CCC(=O)N2CC[C@H]3c4cc5ccccc5nc4C[C@@H]1[C@H]32
#44 O=C(Nc1cccc(C(=O)O)c1)/C(=C\c1ccc2c(c1)OCO2)NC(=O)c1ccccc1
#45 Cc1nc2cc(C(F)(F)F)ccc2n1C1CCN(CC(=O)N2CCCC2)CC1
#46 N#C/C(=C\c1cccc(O)c1)C(=O)Nc1ccc2c(c1)OCCO2
#47 COc1ccc(OCCCC(=O)Nc2nc(C)c(C(C)=O)s2)cc1
#48 COc1ccc(S(=O)(=O)N2CCc3ccccc3C2)cc1C(=O)O

compound no.	41	42	43	44	45	46	47	48
ClpP mod	.	-1.1%	-1.6%	.	0.3%	0.0%	-0.4%	.
gsp agonist	27.0%	?	.	-5.0%	4.0%	?	33.1%[15.4 µM]	-0.4%
gsp antagonist	-9.4%	9.3%	-1.2%	-2.1%	-5.3%	3.5%	-15.5%	6.1%
TRPV1 potentiator	-11.9	-5.9	.	12.6	-9.2	3.4	-0.7	5.9
TRPML1 blocker	-1.9	-5.9	4.7	4.7	-8.0	.	38.2	2.0
Sfp inh	-25.9%	0.5%	.	10.7%	-11.0%	8.8%	13.4%	18.8%
Menin MLL FP FL	-0.2	-1.8	.	-0.5	0.7	3.4	-0.5	-0.2

Shown as a hit in Sfp inh, among the entries above:
No. | SMILES | gsp agonist | gsp antagonist | TRPML1 blocker | Sfp inh | Menin MLL FP FL
22 | CN(C)CCCNC(=O)C(=O)NCC1OCCN1S(=O)(=O)c1cccs1 (stereo not given) | 26.7% | 6.1% | -1.2 | 79.4µM* | .
24 | Cc1cccc(N(Cc2cc3ccccc3[nH]c2=O)S(C)(=O)=O)c1 | -26.7% | -10.2% | 15.5 | 56.2µM* | -2.4
39 | CN(Cc1ccccc1)C(=O)COC(=O)/C=C/c1ccco1 | -15.3%[15.4 µM] | -3.1% | 13.7 | 35.5µM* | ?

Bioassay records as filed in PubChem.
